# Assay outcomes (PubChem)
# CHT inh: human CHT choline transport inhibition | B-score at 10 µM | CHT-expressing cells, membrane potential dye, choline response; hits give low values | 0.86% of 310,000 active;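 active means B-score over 3 SD under the library average, and starting fluorescence ratio not unusually high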;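 further: choline stimulus applied at its EC90 after an EC20 pre-addition; B-score computed on integrated fluorescence ratio after choline addition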
# Target sequence (Q9GZV3 whole entry, looked up): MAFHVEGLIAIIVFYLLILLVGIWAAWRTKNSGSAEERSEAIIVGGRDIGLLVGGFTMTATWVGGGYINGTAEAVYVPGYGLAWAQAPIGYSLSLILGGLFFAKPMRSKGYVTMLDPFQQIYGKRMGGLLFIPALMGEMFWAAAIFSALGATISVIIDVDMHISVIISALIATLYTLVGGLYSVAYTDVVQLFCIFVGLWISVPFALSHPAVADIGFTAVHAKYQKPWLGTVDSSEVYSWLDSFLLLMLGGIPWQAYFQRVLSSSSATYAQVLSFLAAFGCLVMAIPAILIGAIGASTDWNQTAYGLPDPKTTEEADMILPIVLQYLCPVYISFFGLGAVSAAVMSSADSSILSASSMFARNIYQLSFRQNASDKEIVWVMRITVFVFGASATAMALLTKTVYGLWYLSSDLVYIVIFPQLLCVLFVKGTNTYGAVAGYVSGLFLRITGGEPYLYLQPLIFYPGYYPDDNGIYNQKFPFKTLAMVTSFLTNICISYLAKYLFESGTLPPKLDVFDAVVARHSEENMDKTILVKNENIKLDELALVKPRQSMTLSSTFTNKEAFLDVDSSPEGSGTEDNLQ
# Calls only; i = inactive. The list is partial; most or all hits stand in other tables.
SMILES,CHT inh
O=C(Nc1cccc(S(=O)(=O)N2CCOCC2)c1)c1cc2ccccc2o1,i
CC(=O)NS(=O)(=O)c1ccc(NC(=O)c2cc(-c3cccs3)nc3ccccc23)cc1,i
Cc1ccc(NC(=O)CN(C)S(=O)(=O)c2cccc3nsnc23)cc1Cl,i
O=S(=O)(c1ccc(-c2ccon2)s1)N1CCCC1,i
N#CCCn1nc(-c2ccc(Cl)cc2)cc1Nc1ccccc1NC(=O)C(F)(F)F,i
NC(CO)C12CC3CC(CC(C3)C1)C2 (centres undefined),i
COC(=O)[C@@H](NC(=O)NCc1ccccc1Cl)C(C)C,i
Cc1ccc(NC(=O)COCC(=O)Nc2ccc(C)cc2)cc1,i
COc1cccc(/C=N/Nc2ncnc3scc(-c4ccccc4)c23)c1OC,i
Cc1oc2c(C)c(O)ccc2c(=O)c1-c1ccc2ccccc2n1,i
COc1ccc(CC(=O)Nc2c3c(nn2-c2cccc(C)c2C)CS(=O)C3)cc1OC (centres undefined),i
CC(C(=O)Nc1ccc(Cl)cc1Cl)N1C(=O)NC2(CCCC2)C1=O (centres undefined),i
O=C(COC(=O)c1cccnc1Nc1ccccc1F)NCc1ccc2c(c1)OCO2,i
Cc1ccc(-n2[nH]c3c4c(ccc3c2=O)C(=O)c2ccccc2C4=O)cc1,i
COc1ccc(CC(=O)OCC(=O)Nc2c(C)n(C)n(-c3ccccc3)c2=O)cc1,i
COc1ccc(N2CCN(C(=O)c3cccnc3SCc3cccc(Br)c3)CC2)cc1,i
CC(=O)Nc1ccc(C(=O)Nc2ccncc2)cc1,i
CC12CC(c3ccccc3O1)C(/C(N)=N/NC(=O)c1ccc(F)cc1)C(=O)N2 (centres undefined),i
COc1ccc(NC(=O)c2cccc(N3C(=O)C4C5C=CC(C5)C4C3=O)c2)cc1Cl (centres undefined),i
CC(C)CN1CCN(C(=O)CCc2nnc(Cc3c[nH]c4ccccc34)o2)[C@@H](C)C1=O,i
CCCCN(C(=O)c1ccc(C#N)cc1)c1c(N)n(CCC)c(=O)[nH]c1=O,i
O=C(COC(=O)c1ccccc1NS(=O)(=O)c1cccs1)NC1CCCCC1,i
CC(C)CC(=O)NC(=S)N1CCN(c2ccc([N+](=O)[O-])cc2Cl)CC1,i
O=C(CSc1ccc(-c2ccc(F)cc2)nn1)NCC1CCCO1 (centres undefined),i
Cc1nn(-c2ccccc2)c(N2CCCC2)c1/C=N/NC(=O)c1cccc(S(=O)(=O)Nc2ccc(Cl)cc2)c1,i
CCOc1ccc(C2CC(c3cccc(OC)c3)Nc3ncnn32)cc1 (centres undefined),i
CCCN(C(=O)C1=COCCO1)c1c(N)n(Cc2ccccc2)c(=O)[nH]c1=O,i
O=c1oc(-c2cccc(C(F)(F)F)c2)nn1-c1ccc(C(F)(F)F)cn1,i
COc1ccccc1CNC(=O)CCCc1ccccc1,i
CCN(CC(=O)NCc1ccc(F)cc1)c1ccc(S(C)(=O)=O)cc1[N+](=O)[O-],i
CCCCN(C(=O)c1[nH]c(C)c(C(=O)OCC)c1C)c1c(N)n(CCCC)c(=O)[nH]c1=O,i
CCN(CC(=O)Nc1c(F)cccc1F)C(=O)CCOc1ccccc1,i
Cc1cccc(NC(=O)Cn2cnc3sc(C)c(S(=O)(=O)N4CCC(C)CC4)c3c2=O)n1,i
Cc1nc2ccccc2n1S(=O)(=O)c1ccc(S(=O)(=O)N2CCCCCC2)cc1,i
COc1ccc(C(=O)N2CCN(c3cnn(-c4ccccc4)c(=O)c3Cl)CC2)cc1,i
CC(=O)Nc1ccc(N/C=C/C(=O)c2ccc(Cl)cc2)cc1,i
Cn1c(=O)[nH]c(=O)c2c1nc(CN1CCOCC1)n2CCCc1ccccc1,i
Cc1ccc2oc(-c3ccccc3C(=O)O)cc(=O)c2c1,i
N#Cc1ccc(COC(=O)C2CCC(=O)N2)cc1 (centres undefined),i
CCOc1cc2[nH]c(=O)n(CCC(=O)NCCc3ccc(OC)c(OC)c3)c(=O)c2cc1OCC,i
Cc1cc(C(=O)Nc2ccc3c(c2)OCO3)no1,i
Cc1ccc2[nH]c(C(=O)N3CCCCC3)cc2c1,i
O=C(NCCc1ccc(Cl)cc1)c1cc(S(=O)(=O)N2CCCCC2)c[nH]1,i
CC(OC(=O)c1nc(Cl)ccc1Cl)C(=O)Nc1ccccc1F (centres undefined),i
CC(=O)Nc1ccc(OC(=O)c2cc([N+](=O)[O-])ccc2Cl)cc1,i

# By substructure: the entries above containing a Cl atom.
SMILES,CHT inh
Cc1ccc(NC(=O)CN(C)S(=O)(=O)c2cccc3nsnc23)cc1Cl,i
N#CCCn1nc(-c2ccc(Cl)cc2)cc1Nc1ccccc1NC(=O)C(F)(F)F,i
COC(=O)[C@@H](NC(=O)NCc1ccccc1Cl)C(C)C,i
CC(C(=O)Nc1ccc(Cl)cc1Cl)N1C(=O)NC2(CCCC2)C1=O (centres undefined),i
COc1ccc(NC(=O)c2cccc(N3C(=O)C4C5C=CC(C5)C4C3=O)c2)cc1Cl (centres undefined),i
CC(C)CC(=O)NC(=S)N1CCN(c2ccc([N+](=O)[O-])cc2Cl)CC1,i
Cc1nn(-c2ccccc2)c(N2CCCC2)c1/C=N/NC(=O)c1cccc(S(=O)(=O)Nc2ccc(Cl)cc2)c1,i
COc1ccc(C(=O)N2CCN(c3cnn(-c4ccccc4)c(=O)c3Cl)CC2)cc1,i
CC(=O)Nc1ccc(N/C=C/C(=O)c2ccc(Cl)cc2)cc1,i
O=C(NCCc1ccc(Cl)cc1)c1cc(S(=O)(=O)N2CCCCC2)c[nH]1,i
CC(OC(=O)c1nc(Cl)ccc1Cl)C(=O)Nc1ccccc1F (centres undefined),i
CC(=O)Nc1ccc(OC(=O)c2cc([N+](=O)[O-])ccc2Cl)cc1,i

# Later entries
SMILES,CHT inh
CCc1nnc(NC(=O)c2ccc(Cl)c(S(=O)(=O)N3CCc4ccccc4C3)c2)s1,i
Cc1ccccc1C(=O)NN1CC(C(=O)OCc2ccc(Cl)c(Cl)c2)CC1=O (centres undefined),i
O=C(CCCc1ccccc1)Nc1nncs1,i
CCOC(=O)CN(c1cc([N+](=O)[O-])ccc1OC)S(C)(=O)=O,i
C=CCNC(=S)N/N=C1\CCS(=O)(=O)c2ccccc21,i
CC(C)=C1C2CCC1C1C(=O)N(c3ccc4c(c3)OCO4)C(=O)C21 (centres undefined),i
O=[N+]([O-])c1ccccc1Oc1ccc(C(F)(F)F)cn1,i
COc1cccc(C(=O)NCC(=O)OCC(=O)Nc2cc(OC)c([N+](=O)[O-])cc2C)c1,i
Cc1cccc(NC(=O)c2sc3nc4c(c(-c5cccs5)c3c2N)CN(C)CC4)c1,i
O=C(O)c1ccc(O)c(N2C(=O)Nc3ccccc3N2O)c1,i
CCN(CC)C(=O)CSC(Nc1cccc(F)c1)=C(C#N)C#N,i
Brc1ccc(-c2nnc(-c3cccc(Br)c3)o2)cc1,i
COc1ccc(Oc2cccc(Cl)c2CNC(=O)CCC(=O)O)cc1,i
Cc1c(C)n(C)c2ccc(C(=O)N3CCN(c4ccccc4)CC3)cc12,i
COc1ccc(N2CCN(C(=O)Nc3cccc(C(F)(F)F)c3)CC2)cc1,i
CC(O/N=C/c1ccccc1OC(F)F)C(=O)Nc1cccc(S(=O)(=O)N2CCOCC2)c1 (centres undefined),i
O=c1cc(O)c2ccccc2n1Cc1ccccc1,i
CC(C)(C)NC(=O)c1cc(NC(=O)c2cccs2)cc(NC(=O)c2cccs2)c1,i
CC(=O)Nc1ccc(N/C=C/C(=O)c2ccc(C)cc2)cc1,i
CC(C)c1ccc(NC(=O)CSc2n[nH]c(=O)n2-c2ccc3c(c2)OCCO3)cc1,i
COCCCNC(=O)CC(=O)N/N=C\c1ccc(SC)cc1,i
COc1cccc(CN2CCN(C3CSCCSC3)CC2CCO)c1 (centres undefined),i
CS(=O)(=O)N(CC(=O)N1CCOCC1)c1cccc(F)c1,i
COc1ccc(CCNC(=O)c2ccc(NC(=O)CC3SC(N4CCCC4)=NC3=O)cc2)cc1 (centres undefined),i
NS(=O)(=O)c1ccc(CCNC(=O)COC(=O)C2CCN(c3ccc(C(F)(F)F)cn3)CC2)cc1,i
Cc1ccccc1CNC(=O)C1CCC(=O)N(C2CCCCCC2)C1 (centres undefined),i
O=C(O)COCCN1CCN([C@H](c2ccccc2)c2ccc(Cl)cc2)CC1,i
C[C@@H]1CC[C@]2(O[C@@H](CCO)C[C@H](O)[C@H]2O)O1,i
Cc1ccc(C)c(/C(O)=C2\C(=O)C(=O)N(Cc3cccnc3)C2c2cccnc2)c1 (centres undefined),i
CCCC(=O)Nc1ccc(C(=O)N/N=C/c2cccnc2)cc1,i
Cn1cc(S(=O)(=O)N2CCN(c3ccc(F)cc3)CC2)c(=O)n(C)c1=O,i
Cc1ccc(C(=O)COC(=O)CN2C(=O)C3C4C=CC(C4)C3C2=O)cc1C (centres undefined),i
Cc1ccc(NNC(=O)c2ccno2)cc1C,i
CC(O)CN(CCC(N)=O)CCC(N)=O (centres undefined),i
COc1ccccc1C1SCCN1C(=O)c1ccc([N+](=O)[O-])cc1 (centres undefined),i
C=CCNC(=S)NNC(=O)C(CCC(C)C)CC(C)O (centres undefined),i
CCOC(=O)N1CCC(NC(=O)C2=CCN(S(=O)(=O)c3ccc(F)cc3)CC2)CC1,i
CCn1cc(C(=O)N2CCCC2)c(=O)c2cc(S(=O)(=O)N3CCOCC3)ccc21,i
CCCCCc1ccc(-c2cn(Cc3ccc4ccccc4c3)nn2)cc1,i
Cc1ccc2oc(=O)cc(CN3CCN(C/C=C/c4ccccc4)CC3)c2c1,i
COc1cc(/C=N/NC(=O)CC2(C)OCCCO2)ccc1OCc1ccc(Cl)cc1Cl,i
CCOC(=O)c1ccc(NC(=S)NC2CCCC2)cc1,i
O=C(N/N=C/c1cccc2cccnc12)[C@H]1C[C@@H]1c1ccccc1,i
COc1ccc(/C(O)=C2/C(=O)C(=O)N(CCCN3CCOCC3)C2c2ccc(OC)cc2)cc1 (centres undefined),i
c1ccc2c3c([nH]c2c1)CCNC3,i
CC12CCC(C(=O)N(CCCCN3CCN(Cc4ccccc4)CC3)C1=O)C2(C)C (centres undefined),i
Cc1nc2nc(-c3ccco3)[nH]n2c(=O)c1Cc1ccccc1,i
Cn1c(=O)c2c(SCC(=O)N3CCCC3)nc(CC(C)(C)C)nc2n(C)c1=O,i
CCc1ccc(C(C)NC(=O)c2ccc(F)cc2)cc1 (centres undefined),i
c1ccc(C2[C@H]3CN(Cc4cccnc4)[C@H](c4ccccc4)C34CC2(c2ccccc2)C4)cc1 (some centres undefined),i
COc1ccc(-n2cnc(N)c2C(=O)c2cccc([N+](=O)[O-])c2)cc1,i
COc1ccc(OC)c(N(CC(=O)Nc2cccc(C(F)(F)F)c2)S(C)(=O)=O)c1,i
O=C(c1cccs1)N1CCC(c2nc3ccccc3s2)CC1,i
Cc1c(Br)c([N+](=O)[O-])nn1CC(=O)Nc1sc2c(c1C(=O)OC(C)C)CCCC2,i
COc1ccc(CC(=O)N2CC(C)CC(C)C2)cc1OC (centres undefined),i
CN(CC(=O)NCCc1ccc(S(N)(=O)=O)cc1)Cc1c(F)cccc1Cl,i
CN1/C(=C\C(=O)CSc2cccc[n+]2[O-])C(C)(C)c2ccccc21,i
CCn1cc(-c2ccnc3cc(C(=O)O)nn23)c(C)n1,i
Cc1cnc(C(=O)NCCc2ccc(Cl)cc2)cn1,i
Cc1cc(NC(=O)Cn2nc(C(F)(F)F)c3c2CCC3)n(-c2ccccc2)n1,i

# Pulled by structure from above (5):
SMILES,CHT inh
COc1cccc(C(=O)NCC(=O)OCC(=O)Nc2cc(OC)c([N+](=O)[O-])cc2C)c1,i
CCCCCc1ccc(-c2cn(Cc3ccc4ccccc4c3)nn2)cc1,i
COC(=O)[C@@H](NC(=O)NCc1ccccc1Cl)C(C)C,i
N#Cc1ccc(COC(=O)C2CCC(=O)N2)cc1 (centres undefined),i
Cc1c(Br)c([N+](=O)[O-])nn1CC(=O)Nc1sc2c(c1C(=O)OC(C)C)CCCC2,i

# Next part:
SMILES,CHT inh
CCCC1(c2ccccc2)NC(=O)N(CC(=O)Nc2cc(C)ccc2OC)C1=O (centres undefined),i
O=C(COc1ccc(/C=N/NC(=O)c2cccnc2)cc1)Nc1ccccc1,i
O=C(NCc1ccc2c(c1)OCO2)C1CCC(CNc2c(N3CCCC3)c(=O)c2=O)CC1 (centres undefined),i
COc1ccccc1CC(=O)O/N=C(\N)Cc1cccc2ccccc12,i
CNC(=O)c1ccccc1Sc1ccccc1CO,i
O=C1C2Sc3[nH]c(=O)sc3C(c3cc([N+](=O)[O-])ccc3O)C2C(=O)N1c1ccccc1 (centres undefined),i
CCN(CC)S(=O)(=O)c1ccc(/C=C/C(=O)OCC(=O)Nc2ccc(C(N)=O)cc2)cc1,i
Cc1c(NC(=O)Nc2ccc(Cl)cc2)c(=O)n(-c2ccccc2)n1C,i
O=C1CC(c2ccncc2)c2cc3c(cc2N1)OCO3 (centres undefined),i
CCOC(=O)c1ccc(S(=O)(=O)NNC(=O)COc2ccc(C)cc2)cc1,i
Cc1onc(-c2ccccc2)c1-c1n[nH]c(=S)n1-c1ccccc1Cl,i
Cc1cc(C)c(NC(=O)COC(=O)/C=C/c2cccc(C(F)(F)F)c2)c(C)c1,i
COC(=O)c1ccc(OCC(=O)c2ccccc2)cc1,i
Cc1cc(C(=O)Nc2ccccc2C(=O)O)ccc1NC(=O)COc1ccccc1Cl,i
Cc1ccc(S(=O)(=O)N2CCCC2C(=O)NCc2ccccc2F)cc1 (centres undefined),i
COC(=O)[C@H](Cc1ccccc1)NC(=O)N1CCC(C)CC1,i
COc1ccc(NC(=O)c2c(NC(=O)CNCc3ccco3)sc3c2CCC3)c(OC)c1,i
CC(=O)Nc1c(O)nc(SCC(=O)Nc2nnc(SCc3ccccc3)s2)[nH]c1=O,i
Cc1cc(C)nc(SCC(=O)N/N=C\c2sccc2C)n1,i
CCOC(=O)N1CCc2[nH]c3ccc(C)cc3c2C1,i
O=C(CSc1nnc(-c2ccccc2Cl)o1)N1CCCCC1,i
CC(C)(C#N)c1cc(Cn2cncn2)cc(C(C)(C)C#N)c1,i
Cc1cc(C)c(C)c(S(=O)(=O)N2CCCCC2C(=O)O)c1C (centres undefined),i
COc1cc(C(=O)NCCC(=O)N2CCC3(CC2)NCCc2[nH]cnc23)cc(OC)c1OC,i
Fc1ccccc1NC(=S)N1CCCCC1,i
Cc1ccc(-c2cc(C(=O)Nc3ccc(S(=O)(=O)Nc4nccs4)cc3)c3ccccc3n2)c(C)c1,i
O=C(Nc1c(C(=O)O)[nH]c2ccccc12)c1cccc(C(F)(F)F)c1,i
